FGF22 binding – binders of recombinant human FGF22 by thermal shift; 340,000 tested, 1.5% active; AID 651658; Q9HCT0; SYPRO orange fluorescence; percent of sucrose octasulfate shift, DMSO zero; calls only at 9.99 µM;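 active = melting point raised past a set limit in the mean and every replicate; inconclusive = no clear call; three in four hits are not shown here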
Target sequence (Q9HCT0 whole entry, looked up): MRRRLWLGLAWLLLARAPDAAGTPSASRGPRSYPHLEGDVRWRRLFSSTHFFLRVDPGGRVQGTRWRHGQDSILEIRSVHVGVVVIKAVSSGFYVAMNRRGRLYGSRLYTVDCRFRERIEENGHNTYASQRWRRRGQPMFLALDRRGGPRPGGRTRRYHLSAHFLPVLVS
E coli growth – blocks Escherichia coli growth; OD600, 23 h; stronger effect = lower value; OD600 absorbance (no concentration beside the values); 330,000 tested, 0.21% active; AID 1053175;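 active = OD600 absorbance below the run mean of sample wells minus 3.6 SD, in any replicate, cut at about 0.56 in these data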;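 also: stock transfer was 300 nL into about 60 µL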
MLL AF4-AF9 inh – blocks AF4 peptide binding to human AF9; P42568; AlphaScreen, biotin-AF4 peptide binding to FLAG-AF9; inhibition, % at 10 µM; 350,000 tested, 0.47% active; AID 651704;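 active = every replicate reaching a set inhibition limit, whatever the replicate mean, cut at about 25% in these data; inconclusive = mean inhibition reaches that limit but some replicates miss it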;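 also: 0% = plate neutral control median and 100% = total signal loss; the record names both 10 and 1 µM as test concentration; the first replicate is given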
Target sequence (P42568 whole entry, looked up): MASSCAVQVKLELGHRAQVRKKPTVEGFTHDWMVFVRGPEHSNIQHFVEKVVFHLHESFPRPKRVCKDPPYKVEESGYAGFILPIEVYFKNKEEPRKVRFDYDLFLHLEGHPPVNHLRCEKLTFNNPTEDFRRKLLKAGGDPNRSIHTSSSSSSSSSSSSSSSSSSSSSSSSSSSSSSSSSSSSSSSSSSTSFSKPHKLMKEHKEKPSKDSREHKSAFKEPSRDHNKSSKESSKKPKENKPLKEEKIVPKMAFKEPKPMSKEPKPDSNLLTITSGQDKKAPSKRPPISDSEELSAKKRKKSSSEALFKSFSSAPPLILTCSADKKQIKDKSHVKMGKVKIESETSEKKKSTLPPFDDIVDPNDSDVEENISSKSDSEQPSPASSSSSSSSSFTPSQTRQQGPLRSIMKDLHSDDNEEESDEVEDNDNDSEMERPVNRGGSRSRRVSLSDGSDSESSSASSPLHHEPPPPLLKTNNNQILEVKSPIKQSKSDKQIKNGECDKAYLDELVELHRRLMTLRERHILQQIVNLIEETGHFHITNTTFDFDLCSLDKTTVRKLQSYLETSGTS
HNF4A DNA FP – change in binding of human HNF4 alpha to DNA | P41235 | HNF4a-FITC DNA binding, fluorescence polarization, 1 h | activity change, % at 10 µM | 360,000 tested, 0.3% active | AID 1224865; in the data active = activity change above about 30%, passing the limit was not always enough;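 also: controls were the assay level and a saturating level of protein; the project sought stronger binding though the title names inhibitors; some compounds called inactive have numbers as strong as hits; positive values seem to mean higher polarization but the record does not say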
Vif A3G – HIV-1 Vif–A3G interaction blockers – biochemical, TR-FRET, GST-Vif 1-94, biotin-A3G peptide, dose response retest, primary screen (AID 1117319); TR-FRET GST-Vif / biotin-A3G peptide binding; higher % means a stronger effect; test concentration not given here; strong numbers were not always called active; inhibition, %; hits with a dose series show IC50 in µM; 260,000 tested, 0.57% active;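 active = above the screen mean plus three standard deviations and confirmed in dose response; inconclusive = results disagree or hit not tested in dose response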;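 also: Vif residues 1-94 fused to GST binding biotinylated APOBEC3G peptide 110-148; 0% = full assay without inhibitor and 100% = GST in place of GST-Vif; retest series ran down from 100 µM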
Ecoli rRNA inh – inhibitors of bacterial rRNA selective over humanized ribosomes | E. coli WT GFP vs humanized-ribosome RFP mutants, fluorescence, 24 h; stronger effect = lower value; DMSO median 0, no signal -100 | GFP signal change (wild-type ribosome), % (no concentration beside the values) | 350,000 tested, 1.6% active | AID 720706;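 active = significant combined selectivity score with lowered wild-type GFP, culture density cut under 30%, mutant RFP and density less affected; inactive = any of these conditions unmet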; also: one replicate is shown; some compounds called inactive have numbers as strong as hits
ALR H2O2 inh – inhibitors of human sulfhydryl oxidase ALR. inhibition, % (test concentration not listed). 290,000 tested, 3.8% active. purified ALR, DTT oxidation, H2O2 HRP-luminol luminescence;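 active = mean and each replicate at 75% or more; inconclusive = only one of the two met; inactive = neither met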;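 also: stock transfer was 7.5 nL into about 7.5 µL; 0% = neutral wells and 100% = wells with inactivated enzyme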
Target sequence (P55789 whole entry, looked up): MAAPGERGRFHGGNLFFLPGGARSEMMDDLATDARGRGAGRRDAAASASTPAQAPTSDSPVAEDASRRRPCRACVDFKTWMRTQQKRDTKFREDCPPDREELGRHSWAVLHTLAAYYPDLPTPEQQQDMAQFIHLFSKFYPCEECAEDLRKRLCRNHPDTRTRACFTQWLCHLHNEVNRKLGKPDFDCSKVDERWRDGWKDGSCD
Ecoli rRNA inh OD600 – recorded beside Ecoli rRNA inh, whose call it bears; OD600 change, %; measured here: OD600 growth;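 optical density of the mix in the first replicate; 0 = DMSO median and -100 = no signal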
Ecoli rRNA inh RFP – also measured in Ecoli rRNA inh; calls as there; RFP signal change, %; measured here: RFP humanized mutant strains;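 first replicate; 0 = DMSO median and -100 = no signal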
Numbers without * were called inactive; & = joins results of further samples. A portion of the library (hit frequency here may not be typical).

`Cc1cccc(C)c1NC(=O)[C@@]1(CC(=O)O)CC(/C=C/c2ccccc2)=NO1` gave FGF22 binding inactive, E coli growth 0.68, MLL AF4-AF9 inh 6.1, HNF4A DNA FP -4.8, Vif A3G 1%, Ecoli rRNA inh 12, ALR H2O2 inh 7, Ecoli rRNA inh OD600 12 and Ecoli rRNA inh RFP 0.8.
Screening CCNc1nc(NCC)nc(SCCOC(=O)c2ccccc2)n1 returned E coli growth 0.69, HNF4A DNA FP -1.1, Vif A3G -1% and ALR H2O2 inh -4.
Screening CCC(=O)N1N=C(c2cccc(NS(C)(=O)=O)c2)CC1c1cccs1 (centres undefined) returned FGF22 binding inactive, E coli growth 0.64, MLL AF4-AF9 inh -10, HNF4A DNA FP -0.5, Vif A3G 26%, Ecoli rRNA inh 10, ALR H2O2 inh 4, Ecoli rRNA inh OD600 -11 and Ecoli rRNA inh RFP -6.1.
Cc1cc(C)n(-c2ccc(NC(=O)C3CCCCN3C(=O)c3cccs3)cc2)n1 (centres undefined) was read as FGF22 binding inactive, E coli growth 0.7, MLL AF4-AF9 inh -2.8, HNF4A DNA FP -2.8, Ecoli rRNA inh -4, ALR H2O2 inh -2, Ecoli rRNA inh OD600 -20 and Ecoli rRNA inh RFP -2.5.
`O=[N+]([O-])c1cccc(/C=N/n2c(-c3cccnc3)n[nH]c2=S)c1` gave HNF4A DNA FP -2.8, Vif A3G 6% and ALR H2O2 inh 31.
`C[C@H](CO)N1C[C@H](C)[C@H](CN(C)Cc2ccc(Cl)c(Cl)c2)Oc2ccc(NC(=O)Nc3cccc4ccccc34)cc2CC1=O` gave FGF22 binding inactive, MLL AF4-AF9 inh 1.0, Ecoli rRNA inh 1, Ecoli rRNA inh OD600 4 and Ecoli rRNA inh RFP -4.4.
`CCCNC(=O)N1C[C@H](O)COC[C@H]2O[C@H](CC(=O)NCc3ccc(Cl)c(Cl)c3)CC[C@@H]21` gave FGF22 binding inactive, MLL AF4-AF9 inh -1.6, Ecoli rRNA inh -1, Ecoli rRNA inh OD600 -3 and Ecoli rRNA inh RFP -4.3.
For COc1ccc(NS(=O)(=O)c2ccc(OC)c(NC(=O)CCC3CCCC3)c2)cc1 the results were E coli growth 0.72, HNF4A DNA FP 2.8, Vif A3G inconclusive and ALR H2O2 inh 16.
Cn1nc(C(C)(C)C)c([N+](=O)[O-])c1C(=O)NC1CCCCC1 was read as FGF22 binding inactive, E coli growth 0.72, MLL AF4-AF9 inh 6.4, HNF4A DNA FP 1.3, Vif A3G 4%, Ecoli rRNA inh 5, ALR H2O2 inh -2, Ecoli rRNA inh OD600 11 and Ecoli rRNA inh RFP -1.4.
Screening COc1ccc(-c2nn(-c3ccccc3)cc2C(=O)N(C)CC(=O)Nc2cccc(F)c2)cc1 returned FGF22 binding inactive, E coli growth 0.7, MLL AF4-AF9 inh 0.8, HNF4A DNA FP -4.9, Vif A3G -4%, Ecoli rRNA inh -21, ALR H2O2 inh 0, Ecoli rRNA inh OD600 -20 and Ecoli rRNA inh RFP -3.3.
Screening CCC(C)[C@H](NC(=O)C1CC(=O)N(c2ccc(OC)cc2)C1)C(=O)N1CCCCC1 (some centres undefined) returned FGF22 binding inactive, E coli growth 0.68, MLL AF4-AF9 inh -1.6, HNF4A DNA FP 2.1, Ecoli rRNA inh 9, ALR H2O2 inh -1, Ecoli rRNA inh OD600 17 and Ecoli rRNA inh RFP -0.3.
Screening CCc1nc(N2CCN(CC(=O)NCC3CCCO3)CC2)c(C#N)c2c1COC(C)(C)C2 (centres undefined) returned FGF22 binding inactive, E coli growth 0.71, MLL AF4-AF9 inh -4.1, HNF4A DNA FP -4.7, Vif A3G -10%, Ecoli rRNA inh -4, ALR H2O2 inh -9, Ecoli rRNA inh OD600 -12 and Ecoli rRNA inh RFP -4.8.
Screening COc1ccc(CNC2CCCc3ccccc32)cc1OC (centres undefined) returned FGF22 binding inactive, MLL AF4-AF9 inh -6.4, HNF4A DNA FP 1.7, Ecoli rRNA inh 2, ALR H2O2 inh 0, Ecoli rRNA inh OD600 1 and Ecoli rRNA inh RFP -3.0.
`O=C(Nc1cc(S(=O)(=O)N2CCCCCC2)ccc1OCC(F)(F)F)c1cnccn1` gave FGF22 binding inactive, E coli growth 0.69, MLL AF4-AF9 inh -0.5, HNF4A DNA FP -0.9, Ecoli rRNA inh 13, ALR H2O2 inh 3, Ecoli rRNA inh OD600 2 and Ecoli rRNA inh RFP 0.9.
C[C@@H]1CN([C@H](C)CO)C(=O)c2cc(NC(=O)Cc3cn(C)c4ccccc34)ccc2O[C@@H]1CN(C)Cc1ccccc1 was read as FGF22 binding inactive, MLL AF4-AF9 inh 4.5, Ecoli rRNA inh 0, Ecoli rRNA inh OD600 -2 and Ecoli rRNA inh RFP 1.4.
For CCN(CC)c1nc2ccccc2n(Cc2cccc(OC)c2)c1=O the results were FGF22 binding inactive, E coli growth 0.61, MLL AF4-AF9 inh 1.1, HNF4A DNA FP 3.5, Vif A3G 2%, Ecoli rRNA inh 1, ALR H2O2 inh -2, Ecoli rRNA inh OD600 1 and Ecoli rRNA inh RFP 2.4.
COc1cc(NC(=O)COC(=O)CCCC2=NS(=O)(=O)c3ccccc3N2)cc(OC)c1 was read as FGF22 binding inactive, E coli growth 0.64, MLL AF4-AF9 inh 1.4, HNF4A DNA FP 0.2, Ecoli rRNA inh -2, ALR H2O2 inh -2, Ecoli rRNA inh OD600 4 and Ecoli rRNA inh RFP 3.6.
`COc1ccc(NC(=S)N2CCCC(c3nc4ccc(C)cc4[nH]3)C2)cc1` (centres undefined) gave FGF22 binding inactive, E coli growth 0.7, MLL AF4-AF9 inh 0.0, HNF4A DNA FP 9.3, Vif A3G 2%, Ecoli rRNA inh -19, ALR H2O2 inh 13, Ecoli rRNA inh OD600 -24 and Ecoli rRNA inh RFP 2.9.
COc1ccc2oc(C(=O)NCC3CCCO3)c(C)c2c1 (centres undefined) was read as FGF22 binding inactive, E coli growth 0.73, MLL AF4-AF9 inh -4.1, HNF4A DNA FP 4.3, Vif A3G -5%, Ecoli rRNA inh 1, ALR H2O2 inh 2, Ecoli rRNA inh OD600 7 and Ecoli rRNA inh RFP 2.6.
O=C(NCCN1CCOCC1)c1ccccc1N1C(=O)[C@@H]2Cc3c([nH]c4ccccc34)C(c3cccc(Cl)c3)N2C1=O (some centres undefined) was read as FGF22 binding inactive, MLL AF4-AF9 inh 7.5 and HNF4A DNA FP -20.
Screening COc1ccc(CNC(=O)C(c2ccc(C)o2)N(C(=O)c2csnn2)c2ccc(C(C)C)cc2)cc1 (centres undefined) returned E coli growth 0.69, HNF4A DNA FP 0.6, Vif A3G 1%&-6% and ALR H2O2 inh -4.
`O=C(CCC1CCCC1)Nc1cc(C(F)(F)F)ccc1N1CCOCC1` gave FGF22 binding inactive, E coli growth 0.65, MLL AF4-AF9 inh -8.7, HNF4A DNA FP -0.1, Vif A3G 5%, Ecoli rRNA inh 7, ALR H2O2 inh -11, Ecoli rRNA inh OD600 6 and Ecoli rRNA inh RFP -1.1.
For CO[C@@H]1CN(C)C(=O)c2cc(NC(=O)NC3CCCCC3)ccc2OC[C@H](C)N(CC2CCOCC2)C[C@@H]1C the results were FGF22 binding inactive, MLL AF4-AF9 inh -14, Ecoli rRNA inh 1, Ecoli rRNA inh OD600 2 and Ecoli rRNA inh RFP -2.4.
Screening C[C@@H]1CN([C@H](C)CO)C(=O)c2cc(NC(=O)c3ccncc3)ccc2O[C@@H](C)CCCCO[C@H]1CN(C)Cc1ccc(Cl)c(Cl)c1 returned FGF22 binding inactive, MLL AF4-AF9 inh 5.8, Ecoli rRNA inh -1, Ecoli rRNA inh OD600 -13 and Ecoli rRNA inh RFP 7.0.
For O=C1c2ccccc2C(=O)N1CCCCCc1nc(-c2ccccc2)no1 the results were E coli growth 0.74, HNF4A DNA FP 5.1, Vif A3G 5% and ALR H2O2 inh -1.
`C[C@@H](NC(=O)C[C@@H]1CC[C@H]2[C@@H](COC[C@H](O)CN2C(=O)Nc2ccccc2)O1)c1ccccc1` gave FGF22 binding inactive, MLL AF4-AF9 inh -1.2, Ecoli rRNA inh -4, Ecoli rRNA inh OD600 5 and Ecoli rRNA inh RFP -3.7.
For O=C(OCn1nnc2ccccc2c1=O)C1CCN(S(=O)(=O)c2cccs2)CC1 the results were E coli growth 0.69, HNF4A DNA FP 0.6 and Vif A3G 10%.
CC(C)c1nnc(N2C(=O)C(O)=C(C(=O)c3cccs3)C2c2ccccc2)s1 (centres undefined) was read as FGF22 binding inactive, E coli growth 0.65, MLL AF4-AF9 inh 1.4, HNF4A DNA FP -50, Vif A3G -1%, Ecoli rRNA inh -3, Ecoli rRNA inh OD600 -6 and Ecoli rRNA inh RFP -2.1.
`CCCCc1nc(SCC(=O)N2CCCC2)c2c(=O)n(C)c(=O)n(C)c2n1` gave FGF22 binding inactive, E coli growth 0.67, MLL AF4-AF9 inh 0.5, HNF4A DNA FP -0.5, Ecoli rRNA inh -6, ALR H2O2 inh 35, Ecoli rRNA inh OD600 -22 and Ecoli rRNA inh RFP 0.9.
For Cn1nc(C(F)(F)F)c(-c2ccccc2)c1NC(=O)c1cccnc1 the results were FGF22 binding inactive, E coli growth 0.61, MLL AF4-AF9 inh 1.1, HNF4A DNA FP 1.8, Vif A3G 11% and ALR H2O2 inh -7.
C[C@H](CO)N1C[C@H](C)[C@@H](CN(C)C(=O)Nc2ccc(C(F)(F)F)cc2)Oc2ccc(NS(=O)(=O)c3cn(C)cn3)cc2CC1=O was read as FGF22 binding inactive, MLL AF4-AF9 inh 4.5, Ecoli rRNA inh 0, Ecoli rRNA inh OD600 12 and Ecoli rRNA inh RFP -0.3.
C[C@@H]1CCCCO[C@@H](CN(C)C(=O)Nc2cccc3ccccc23)[C@@H](C)CN([C@H](C)CO)C(=O)c2cc(NS(=O)(=O)c3ccccc3)ccc2O1 was read as FGF22 binding inactive, MLL AF4-AF9 inh 1.3, Ecoli rRNA inh 4, Ecoli rRNA inh OD600 5 and Ecoli rRNA inh RFP 0.3.
CC1=CC2=NC(=O)/C(=C\c3cc(C)n(-c4ccccc4F)c3C)C(=N)N2O1 was read as FGF22 binding inactive, E coli growth 0.69, MLL AF4-AF9 inh 3.9, HNF4A DNA FP -4.2, Vif A3G -7%, Ecoli rRNA inh 2, ALR H2O2 inh -5, Ecoli rRNA inh OD600 6 and Ecoli rRNA inh RFP 5.6.
Cc1cc(C(=O)Nc2cccc3c2O[C@@H](CN(C)Cc2ccc4c(c2)OCO4)[C@H](C)CN([C@@H](C)CO)C3=O)n(C)n1 was read as FGF22 binding inactive, MLL AF4-AF9 inh -13, Ecoli rRNA inh -4, Ecoli rRNA inh OD600 -30 and Ecoli rRNA inh RFP -2.9.
`C[C@@H]1CN([C@@H](C)CO)C(=O)c2cccc(NC(=O)c3ccc(-c4nccs4)cc3)c2O[C@H]1CN(C)C` gave FGF22 binding inactive, MLL AF4-AF9 inh 0.3, Ecoli rRNA inh -6, Ecoli rRNA inh OD600 -2 and Ecoli rRNA inh RFP 0.8.
Screening O=C(CCC(=O)NCCCc1ccccc1)NCCCc1ccccc1 returned FGF22 binding inactive, E coli growth 0.69, MLL AF4-AF9 inh -0.5, HNF4A DNA FP 2.7, Vif A3G -2%, Ecoli rRNA inh 12, ALR H2O2 inh -3, Ecoli rRNA inh OD600 17 and Ecoli rRNA inh RFP -6.6.
For CN1c2ccc(C3=CCCCC3)cc2[C@@H]2[C@@H](CCN2S(=O)(=O)c2ccccc2F)[C@H]1CO the results were FGF22 binding inactive, MLL AF4-AF9 inh 3.5, Ecoli rRNA inh -4, Ecoli rRNA inh OD600 2 and Ecoli rRNA inh RFP 11.
